Screening results: PubChem, National Center for Advancing Translational Sciences (NCATS)
miR-21 reporter = raises the signal of a miR-21 reporter; HeLa miR-21 FLuc reporter, luciferase, 48 h; Potency, µM (top dose mostly 38.3 µM), inactives show at the highest dose reporter change, positive = more light; 340,000 tested, under 10 active; active = well fitted rising curve with a large enough effect; inconclusive = small, poorly fitted or top-dose-only effect; inactive = no such curve, though single readings can be large or run the other way;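 further: % of control where 0% means no effect; miR-21 action dims this reporter so a rising signal means less miR-21 action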
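HeLa cells stably expressing CMV-driven firefly luciferase with a downstream miR-21 binding sequence, endogenously expressing miR-21, were treated with titrations (up to about 40uM final) for 48 hours at 37 degree Celsius. Luciferase luminescence was read after lysis.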
GLA inh pH 4.5 = blocks human alpha-galactosidase A at pH 4.5; AID 1467; activity change, negative = inhibition, % at 105 µM; 230,000 tested, under 10 active; P06280; purified enzyme, 4-MU-alpha-Gal fluorescence, pH 4.5; inconclusive = small, poorly fitted or top-dose-only inhibition, or a rising curve; inactive = flat fitted curve, though single readings scatter; no compound was filed as active;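 further: 0% = full activity with enzyme and -100% = basal without enzyme; dose as in the result columns while the protocol names 77 µM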
Target sequence (P06280 whole entry, looked up): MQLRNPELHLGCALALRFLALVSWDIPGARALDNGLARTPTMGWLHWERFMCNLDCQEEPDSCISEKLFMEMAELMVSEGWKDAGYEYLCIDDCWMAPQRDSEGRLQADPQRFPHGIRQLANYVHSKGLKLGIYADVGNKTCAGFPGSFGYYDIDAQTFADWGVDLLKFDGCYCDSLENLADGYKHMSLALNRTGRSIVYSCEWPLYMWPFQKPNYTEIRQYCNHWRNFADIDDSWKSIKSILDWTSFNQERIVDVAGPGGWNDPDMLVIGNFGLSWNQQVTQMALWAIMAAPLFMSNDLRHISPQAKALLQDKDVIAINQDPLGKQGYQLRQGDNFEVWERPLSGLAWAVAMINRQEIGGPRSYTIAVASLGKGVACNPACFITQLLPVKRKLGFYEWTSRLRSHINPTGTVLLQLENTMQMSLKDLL
Rango release inh = prevents RanGTP from dissociating the Rango-importin beta complex; O95149+P62826; Biochemical FRET Rango-importin beta, RanGTP-induced dissociation; Potency, µM (highest dose often 46.1 µM), for the others: at the top dose activity change, negative = inhibition; 340,000 compounds, 0.071% hits; active means falling FRET ratio curve, often poorly fitted, with flat reads before Ran was added; inconclusive means other falling curves, or compound fluorescence or quenching; inactive means flat or rising ratio curve;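 further: potency means the concentration at half of the fitted maximal effect; % of control where 0% means no effect; nearly all actives have a fitted effect of over 45% in size; -100% = wells without RanGTP and RCC1; the record marks most hits as doubtful in a second field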
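Recombinant Rango FRET biosensor (EYFP–snurportin 1 IBB–cerulean CFP10) at 0.1 uM premixed with 0.25 uM importin beta in PBS, 1 mM DTT, 0.02% Tween-20, 0.1% BSA. Compound added 5 min; RanGTP-RCC1 (0.6 uM Ran, 2 mM GTP, 0.2 uM RCC1) then triggers release, read at 45 min.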
Rango complex inh = inhibitors of Rango-importin beta complex formation. Potency, µM (doses to about 92.2 µM), for inactives: at the top dose inhibition of complex formation. AID 540263. Q14974. Rango CFP/YFP FRET sensor + importin beta, 45 min. 340,000 compounds, 0.031% hits; active = rising FRET ratio curve, often small or poorly fitted; inconclusive = mostly compound fluorescence or quenching in the first reads; inactive = flat curves in all reads;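 further: potency means the concentration at half of the fitted maximal effect; 0% = DMSO wells and 100% = buffer wells lacking importin beta; nearly all actives have a fitted effect of over 15% in size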
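FRET biosensor (snurportin 1 IBB flanked by EYFP and cerulean), 50 nM, with compound 5 min, then 0.125 microM importin beta in PBS, 1 mM DTT, 0.02% Tween-20, 0.1% BSA. CFP/YFP ratio read after 45 min at room temperature; pre-read flags interference.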
Starred values were filed as active, the others as inactive; ? = inconclusive; · = no result given; & = joins results of further samples.

Each structure is followed by: miR-21 reporter	GLA inh pH 4.5	Rango release inh	Rango complex inh
> Cc1ccc(-c2cc(C(F)(F)F)c(C#N)c(SCC(=O)O)n2)cc1
    9%&10%	-26	?	-1.5%
> O=C(Nc1ccn(Cc2ccccc2F)n1)c1ccc(COc2cc(Cl)ccc2Cl)o1
    18%	0	15%	-1.0%
> O=C(Nc1nc2c(ccc3ccccc32)s1)c1ccco1
    -33%	3	8%	-0.1%
> COc1ccc(OC)c(S(=O)(=O)N2CCCCCC2)c1
    -5%	0	10%	-1.7%
> CC(NC(=O)c1cc2cc(Br)ccc2oc1=N)c1ccccc1 (centres undefined)
    -4%	·	8%	2.8%
> COc1ccccc1/C=C/c1nc(C#N)c(N(C)C)o1
    -67%&-68%	·	?	?
> CC(C)=CCC/C(C)=C/CNC(=O)CC1C[C@H](C(=O)N2CCCCC2)[C@@]2(C)c3[nH]c4ccccc4c3CCN2C1=O (some centres undefined)
    ·	·	1%	-2.6%
> CN(Cc1nc(C(c2ccccc2)c2ccccc2)no1)CC1COCCO1 (centres undefined)
    -34%	8	-9%	-0.2%
> Cc1ccc(S(=O)(=O)N2CCCC2C(=O)NC2=NCCS2)cc1 (centres undefined)
    -3%	-6	3%	-2.4%
> CCOc1ccc(NC(=O)CCNS(=O)(=O)c2cccc3nsnc23)cc1
    4%&5%	·	13%	0.3%
> COc1cc(/C=N/n2c(C3CCCCC3)n[nH]c2=S)ccc1O
    2%	·	4%	-0.6%
> Cc1ccc(C(=O)NCC(=O)NC2CCCCCC2)cc1
    -19%	·	5%	2.3%
> COc1cccc(/C=C/C(=O)NCCc2ccc(OC)c(OC)c2)c1
    -18%	6	-9%	11%
> O=C(N/N=C/c1cccc(Cl)c1)C1CCCC1
    -52%	·	-4%	1.5%
> COc1ccc(-c2nn(-c3ccccc3)cc2C(=O)Nc2nccs2)cc1OC
    17%	-6	1%	11%
> CC(OC(=O)c1ccc(S(=O)(=O)N2CCCCC2)cc1)C(=O)Nc1ccc(C(N)=O)cc1 (centres undefined)
    ·	·	-19%	-0.3%
> O=C(NC(=S)Nc1ccc(S(=O)(=O)N2CCOCC2)cc1)c1ccccc1[N+](=O)[O-]
    0%	5	-6%	1.9%
> COC(=O)c1ccc(C(=O)NC(=S)Nc2nc3c(s2)CC(C)CC3)cc1 (centres undefined)
    -37%	-6	-2%	-1.4%
> CCCCOn1c(C)c(C(=O)OCC)c2c3no[n+]([O-])c3ccc21
    0%	-9	0%	1.0%
> COc1ccc(OCCCC(=O)NCc2ccco2)cc1
    -2%	-5	0%	3.9%
> CS(=O)(=O)N(CC(=O)NCc1ccco1)c1ccc(Cl)c(C(F)(F)F)c1
    1%	-5	-8%	-0.4%
> O=C(/C=C/c1ccc(Cl)c([N+](=O)[O-])c1)Nc1ccc(N2CCCC2)c(Cl)c1
    -8%	1	-2%	-2.9%
> CC1=NN(c2ccccc2)C(=O)C1N=Nc1ccc(C)cc1 (centres undefined)
    -11%	0	·	·
> Nc1ccc(C(=O)N2CCN(S(=O)(=O)c3ccc(Cl)s3)CC2)cc1[N+](=O)[O-]
    ·	·	-11%	-0.6%
> O=C(COC(=O)c1ccc(Cl)nc1)NCc1ccc(F)cc1
    ·	·	-4%	-0.5%
> COC(=O)c1noc(C)c1-c1ccnn1C(=O)c1ccc(C)cc1
    0%	-1	5%	-0.2%
> C#CC1(NC(=O)NCCCC)CCCCC1
    -1%	5	10%	2.4%
> CCn1c(SCC(=O)N2CCCC2)nc2c(c1=O)SC(C)C2 (centres undefined)
    0%	8	19%	-1.6%
> COc1cc(C(=S)N2CCOCC2)ccc1OC(=O)c1ccccc1C
    10%	·	-9%	0.1%
> Cc1occc1C(=O)NNC(=O)CN1C(=O)NC(C)(c2ccccc2)C1=O (centres undefined)
    ·	·	?	?
> NC(=NC(=O)c1ccc(OCC(F)(F)F)nc1)c1ccc(Cl)cc1
    1%	-4	-8%	2.0%
> O=C1NC(Cc2ccccc2)C(=O)N1Cc1ccccc1 (centres undefined)
    ·	·	2%	4.9%
> Cc1cc(Cl)c(OCCOCCN2CCNCC2)c(Cl)c1
    ·	·	2%	0.0%
> CSc1nc2nc3c(cc2c(=O)[nH]1)C(O)Oc1ccc(C)cc1-3 (centres undefined)
    4%	4	12%	-3.4%
> CCOc1ccc(CCNC(=O)COC(=O)CCS(=O)(=O)c2ccc(C)cc2)cc1OCC
    ·	·	-4%	-1.4%
> CCOC(=O)N1CCN(CC(=O)c2ccc3c(c2)CCN3)CC1
    -5%	5	11%	0.9%
> Brc1cccc(OCCN2CCc3ccccc3C2)c1
    -4%	·	-16%	-4.5%
> CCOc1ccc(OCc2ccc(C(=O)NC(C)C)o2)cc1
    -8%	·	32%	-0.5%
> Cc1ccc(-n2c(C)nnc2SCC(=O)N(C)C2CCS(=O)(=O)C2)cc1 (centres undefined)
    ·	·	45%	2.7%
> Cc1ccccc1C(=O)Nc1nnc(CC(=O)N/N=C/c2ccco2)s1
    0%	7	0%	-2.3%
> CCCCOc1ccc(-c2c(C#N)c(N)nc(SCC(N)=O)c2C#N)cc1
    6%	-6	-6%	1.4%
> CN(C(=O)CSc1nc2scc(-c3ccccc3)c2c(=O)[nH]1)c1ccccc1
    ·	·	-12%	-7.6%
> COc1ccc(C(=O)Nc2cccnc2Sc2ccc(Cl)cc2)cc1
    -33%	3	5%	-2.3%
> CC(C)C(C(=O)NC1CCCC1)N(CC1CCCO1)C(=O)CNS(=O)(=O)c1ccccc1 (centres undefined)
    3%	·	-4%	?
> O=C(Nc1ncc(Cc2cccc(Cl)c2Cl)s1)c1ccc([N+](=O)[O-])cc1
    -1%	0	-2%	5.6%
> CCSc1nnc2nc3[nH]c4c(C)cccc4c3nn12
    -28%	3	-21%	0.8%
> O=C(c1ccc(Cl)cc1)N1N=CCC1(O)c1ccc(Cl)cc1 (centres undefined)
    2%	·	-11%	-0.2%
> Cc1c(CCOC(=O)C23CC4(C)CC(C)(CC(C)(C4)C2)C3)sc[n+]1CC(=O)c1ccccc1
    3%	2	19%	-0.9%
> N#Cc1cc2c(=O)n3ccccc3nc2n(-c2ccccc2Cl)c1=O
    19%	?	?	?
> COCCn1c(C)cc(C(=O)COc2ccc(C)nc2[N+](=O)[O-])c1C
    2%	1	-16%	-0.8%
> CN(/N=C/c1cccnc1)c1cnc2ccccc2n1
    -55%	0	?	?
> Cn1c(N)c(C(=O)COC(=O)C2(c3ccccc3F)CCCC2)c(=O)n(C)c1=O
    9%	-2	0%	1.6%
> COc1ccc(C(=O)NC2CC(C)(C)Cc3c2cnn3-c2ccccc2C)o1 (centres undefined)
    13%	·	-3%	-3.2%
> CCCc1cc(=O)n2[nH]c(NCc3ccc(OC)cc3)nc2n1
    -3%	8	?	?
> O=C(/C(=C/O)N=Nc1ccccc1Cl)c1ccccc1
    26%	-2	15%	0.1%
> C[C@H](CO)N1C[C@H](C)[C@H](CN(C)S(=O)(=O)c2ccccc2)Oc2c(NS(C)(=O)=O)cccc2C1=O
    ·	·	29%	-6.3%
> O=[N+]([O-])c1ccc(N/N=C/c2ccccc2)cc1
    -43%	-11	?	?
> COc1cc(C(=O)Nc2ccc(Br)cc2C(=O)c2cc(OC)c(OC)c(OC)c2)cc(OC)c1OC
    15%	7	1%	3.6%
> Clc1ccc(CNc2ncccn2)cc1
    -9%	·	-9%	1.9%
> NS(=O)(=O)c1ccc(CCNC(=O)COC(=O)c2ccc([N+](=O)[O-])o2)cc1
    ·	·	9%	0.3%

Next part:
Each structure is followed by: miR-21 reporter	GLA inh pH 4.5	Rango release inh	Rango complex inh
> Cc1cccc2cc(CN(Cc3ccccc3)C(=S)NCCCN(C)C)c(=O)[nH]c12
    1%	1	2%	-0.1%
> c1ccc(C(=C2CCCO2)c2ccccc2)cc1
    ·	·	3%	4.7%
> COc1ccc(C)cc1S(=O)(=O)N1CCCCCC1
    1%	-2	17%	-3.4%
> COc1ccccc1C(=O)Nc1ccccc1C(=O)NC1CCCCC1
    4%	·	-6%	3.6%
> O=C(NCCO)c1cc2c(s1)CCC2
    -11%	-5	?	6.8%
> N#CCCn1cc(C(=O)CN2C(=O)C(=O)N(C3CCCC3)C2=O)c2ccccc21
    ·	·	12%	-1.4%
> CCN1CCN(c2ccc(NC(=O)c3ccc4c(c3)[nH]c(=O)n4Cc3ccc(F)cc3)cc2)CC1
    17%	2	2%	0.9%
> CCCCCCN1C=CC=C/C1=C\C=C(C#N)C#N
    -2%	-16	?	?
> O=C(Nc1ccc(F)cc1)c1ccc(NC(=O)C2CCCO2)cc1 (centres undefined)
    -34%	·	1%	-1.9%
> Cc1ccc(CN2CCNC(=O)C2CC(=O)NCCCn2cccn2)o1 (centres undefined)
    -1%	-2	-8%	-3.4%
> O=C(c1ccc(CS(=O)(=O)c2ccc(Br)cc2)o1)N1CCCCCC1
    -2%	-6	2%	-3.9%
> Oc1oc(-c2ccccc2)nc1/C=N/c1nccs1
    -30%	0	?	?
> O=C(Nc1ccc2c(c1)OCO2)c1cccs1
    -43%	4	7%	-2.0%
> Cc1ccc(SC(C)C(=O)N2CCC(C(N)=O)CC2)cc1 (centres undefined)
    -1%	8	-2%	3.9%
> CCOC(=O)N1CCC(NC(=O)c2ccc3c(c2)N(C)CCS3)CC1
    -4%	-16	9%	-2.4%
> CCCC(=O)Nc1ccc(C(=O)NNC(=S)NC(=O)c2ccc(Br)o2)cc1
    -5%	1	-11%	?
> COc1ccc2nc(/N=C/c3c(C)[nH]n(-c4ccc(C)cc4C)c3=O)sc2c1
    -24%	4	-14%	?
> CCOC(=O)c1ccc(CNC(=O)CSc2nnnn2-c2ccc(Cl)cc2)o1
    -6%	1	16%	1.2%
> COC(=O)c1ccc(OC)cc1OCC(=O)N1CCN(c2ccc(F)cc2)CC1
    -2%	?	12%	3.8%
> CCCCN(C(=O)CSc1nnnn1-c1ccccc1OC)C1CCS(=O)(=O)C1 (centres undefined)
    ·	·	-3%	6.7%
> COc1ccccc1NCC(=O)N1CCN(S(=O)(=O)c2ccccc2)CC1
    ·	·	16%	-0.7%
> Cc1nc2ccc([N+](=O)[O-])cc2c(=O)n1Cc1ccc([N+](=O)[O-])cc1
    4%	·	-17%	1.7%
> Cc1cccc(NS(=O)(=O)c2cc(C(=O)N3CCOCC3)ccc2Cl)c1
    -6%	-10	7%	0.4%
> CCC(CO)Oc1cc(NC(=O)c2ccc(C)cc2)c2ncn(C(C)C)c2c1 (centres undefined)
    ·	·	1%	?
> COc1ccc(CNC(=O)/C=C/C(=O)O)cc1
    0%	-5	-18%	2.1%
> O=C1c2ccccc2NC(c2cccc(F)c2)N1Cc1ccccc1 (centres undefined)
    -3%	·	-2%	-1.0%
> COc1ccccc1S(=O)(=O)n1cc(Cc2ccccc2)c(N)n1
    -17%	7	1%	-0.7%
> Cc1cc(NC(=O)CCSc2nc(-c3ccco3)cc(C(F)(F)F)n2)n(-c2ccccc2)n1
    -6%	-10	1%	-1.0%
> COc1ccc(C(=O)Nc2cc(OC)cc3cccnc23)cc1
    -10%	·	-6%	-0.5%
> COc1ccc(OC)c(NC(=S)N2CCN(c3ccccn3)CC2)c1
    -8%	3	3%	-1.4%
> Cc1[nH]nc(-c2ccc(OCc3cnn(-c4ccccc4)c3)c(C)c2O)c1Oc1ccccc1
    -4%	-9	-8%	-0.3%
> CC(C)c1ccc(N=C2N=C(N)c3ccccc32)cc1
    -4%	-2	?	12%

This is a subset (hit frequency here may not be typical).
